Bioassay records deposited in PubChem by National Center for Advancing Translational Sciences (NCATS).
HSD17B inhib: inhibitors of human HSD17B10 dehydrogenase. Q99714. recombinant HSD17B10, NADH fluorescence kinetic; many of its hits are not listed in these tables. Potency, µM (doses to about 57.1 µM), without a hit: at the highest dose activity change, negative = inhibition, usual class: inhibitors. hit rate 7.6% among 75,000. AID 893; active means well fitted inhibition curve with a large enough effect; inconclusive means small, poorly fitted or top-dose-only effect; inactive means no such curve, though single readings can be large or run the other way;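 further: the protocol describes HADH2 (HSD17B10) and not the HSD17B4 of the title; nearly all actives have a fitted effect of over 70% in size; most hits overshoot -100% by far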
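Enzyme plus compound, 15 min room temperature; substrate mix added (NAD+ 1 mM, beta-hydroxybutyryl-CoA 90 uM final); plates read kinetically for NADH fluorescence. HADH2 was His-tagged, E. coli-derived, 20 nM.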
* hit, by the source's call; ? = inconclusive; [ ] = dose if it differs, or a comment. On the % scale 0 is the no-effect control and ±100 the full control effect; potency means the concentration at half of the fitted maximal effect. This is a subset. The share of hits here may be higher or lower than overall.

entry	Molecule	HSD17B inhib
1	O=C1C(Cl)=C(NCC2CCCO2)C(=O)N1Cc1ccccc1 (stereo not drawn)	0%
2	COc1ccc2c(c1)Cc1cc(N=[N+]([O-])c3ccc4c(c3)Cc3cc(OC)ccc3-4)ccc1-2	?
3	O=C(Cc1cccs1)N1CCCC(c2nc3c(nnn3Cc3cccc(Cl)c3)c(=O)[nH]2)C1 (stereo not drawn)	2%
4	COCCNC(=O)c1ccc(C(=O)NCCOC)s1	-11%
5	COc1cc(OC)c(C2=NOC(C(=O)Nc3cc(C)nn3-c3ccccc3)C2)cc1Cl (stereo not drawn)	-5%
6	CCC(C)(C)NC(=O)CN(Cc1ccc2c(c1)OCO2)C(=O)CCC(=O)Nc1ccccn1	0%
7	O=C1c2ccccc2C(Nc2ccc3c(c2)OCO3)N1Cc1ccc2c(c1)OCO2 (stereo not drawn)	-24%
8	COC(=O)c1[nH]c2ccc(Cl)cc2c1NC(=O)CCN1CCOCC1	25µM*
9	CCOC(=O)c1c(NC(=O)CSc2nnnn2C)sc(CC)c1C	-21%
10	Cc1c2ccccc2c(CSC(=N)N)c2ccccc12	9%[11.4 µM]

(cont.)
entry	Molecule	HSD17B inhib
11	COC(=O)[C@H]1C[C@@H]1[C@H](NC(=O)OCc1ccccc1)c1ccccc1	8%
12	COc1ccc(NC(=O)c2cccc(Cn3cc(Br)cn3)c2)cn1	-1%
13	O=C(Nc1ccon1)c1ccccc1Cl	7%
14	CC(Cc1ccccc1)C(=O)NCCO (stereo not drawn)	-2%
15	Cc1ccc(S(=O)(=O)N2CCN(C(=O)C3Cc4ccccc4CN3C(=O)c3ccco3)CC2)cc1 (stereo not drawn)	0%
16	O=C(NCCC1=CCCCC1)c1ccc(F)c(S(=O)(=O)N2CCOCC2)c1	0%
17	CCN(CC)c1ncnc2sc(C(=O)N3CCN(c4ccccc4)CC3)c(C)c12	10%
18	O=C(CCCn1c(=S)[nH]c2cc3c(cc2c1=O)OCO3)N1CCN(c2ccc(F)cc2)CC1	-6%
19	COC(=O)[C@@H]1C[C@H]2CC[C@H](O)C[C@H]2N1Cc1ccc(Cl)cc1	-3%
20	CC(C)CC(c1nnnn1CC1CCCO1)N1CCN(c2cccc(Cl)c2)CC1 (stereo not drawn)	0%

Going on with the list.
entry	Molecule	HSD17B inhib
21	O=C(OCc1ccc2c(c1)OCO2)c1ccc(S(=O)(=O)N2CCCCC2)cc1	7%
22	COCCn1c(C)nc2oc3ccc(Br)cc3c(=O)c2c1=O	?
23	O=C(NC1=NC2CCCCC2N1)c1ccccc1 (stereo not drawn)	1%
24	CC1Cc2ccccc2N1C(=O)Cn1cnc2ccccc2c1=O (stereo not drawn)	-5%
25	COCCn1c(C)cc(C(=O)COC(=O)c2ccc(N3CCCC3=O)cc2)c1C	-8%
26	COc1ccccc1-c1cc(C(=O)Nc2cc(C)nn2-c2ccccc2)no1	?
27	Cc1cc(=O)oc2cc3c(cc12)OCCO3	25µM*
28	COc1ccc(C(=O)NCC(c2ccc(F)cc2)N2CCOCC2)cc1S(=O)(=O)N1CCCC1 (stereo not drawn)	15%
29	Cc1ccc(C(=O)Nc2cccc(C(=O)NCc3ccccc3)c2)o1	-6%
30	CC(C)CCN1CCc2nc(COc3ccccc3)c3c(c2C1)COC(C)C3 (stereo not drawn)	1%[11.4 µM]

More results
entry	Molecule	HSD17B inhib
31	CCOC(=O)c1c(C)c(C(=O)N2CCN(c3cccc(Cl)c3)CC2)c(C)n1C	3%
32	O=C(CC12CC3CC(CC(C3)C1)C2)NCC(=O)N1CCCC1	-1%
33	CCOC(=O)c1sc2nc(N3CCOCC3)c3c(c2c1N)CC(C)(C)N(C)C3	25µM*
34	CCN(CC)CCOC(=O)c1cccc(Br)c1	1%
35	CC(C)CCN1CCc2nc(-c3ccccc3)c3c(c2C1)COC(C)C3 (stereo not drawn)	2%[11.4 µM]
36	c1ccc(COc2ccc(OCCOCCn3cncn3)cc2)cc1	-21%
37	COc1ccccc1CNC(=O)[C@@H]1CCCN1C(=O)C1CCN(S(=O)(=O)c2ccc(C)cc2)CC1	13%
38	C=CCn1c(Cc2cccs2)nnc1SCC(=O)Nc1cc(OC)cc(OC)c1	1%
39	C=CCNC(=O)c1ccc(C)cc1Cl	6%
40	COC(=O)c1ccc(COC(=O)c2ccccn2)cc1	-13%

Further structures follow:
entry	Molecule	HSD17B inhib
41	CS(=O)(=O)c1ccc2nc(NC(=O)C3C4C=CC(C4)C3C(=O)O)sc2c1 (stereo not drawn)	-3%
42	COc1cccc(-c2nc(NCc3ccc(OC)cc3OC)c3ccccc3n2)c1	-24%
43	COc1ccc(N2C(=O)C(CC(=O)O)S/C2=C\C(C)=O)cc1 (stereo not drawn)	-17%
44	COc1ccc(Cc2nnc(SCC(=O)Nc3nc(C)cs3)o2)cc1	-8%
45	O=c1[nH][nH]c2nc(C(F)(F)F)cc(C(F)(F)F)c12	10%
46	CCOC(=O)c1cc(CC)sc1NC(=O)Cc1ccsc1	-17%
47	COc1ccc(CN(Cc2cc3ccc(C)cc3[nH]c2=O)Cc2nnnn2C2CCCC2)cc1	?
48	Cc1cccc(CN2CCNC2=O)c1	14%
49	COc1ccc(N2CCN(C(c3ccccc3)c3nnnn3Cc3ccc(F)cc3)CC2)cc1 (stereo not drawn)	-7%
50	CCOC(=O)C1CCCN(C(=O)C(C)Oc2ccc(Cl)cc2Cl)C1 (stereo not drawn)	7%

Further records follow.
entry	Molecule	HSD17B inhib
51	Cc1noc(C)c1C(=O)N1CCc2ccccc2C1	0%
52	O=C(CCS(=O)(=O)Cc1ccccc1F)N1CCc2ccccc2C1	7%
53	Nc1ccc2oc(-c3ccccn3)nc2c1	-10%
54	Nc1ncnc2c1ncn2[C@@H]1O[C@@H](CO)[C@H](O)[C@@H]1O	-3%
55	Cc1cc(-n2c(C)cc(C(=O)CSc3nnnn3-c3ccccc3)c2C)no1	2%
56	COc1ccc(CCNC(=O)CSc2nnc(-c3cccc(C)c3)o2)cc1OC	5%
57	O=C(NCCC1=CCCCC1)N[C@@H](Cc1ccccc1)C(=O)O	-10%
58	CC(C)CO/N=C1/C[C@@H](O)[C@@H](O)[C@@H]2[C@@H]3C(=O)N(C(C)(C)C)C(=O)[C@H]3CC[C@@H]12	-1%[11.4 µM]
59	CCn1cc(C(=O)NCCCN2CC(C)CC(C)C2)c2cc(OC)c(OC)cc2c1=O (stereo not drawn)	-6%
60	CCN(CC)CCOc1ccc(Br)cc1	7%

Carrying on:
entry	Molecule	HSD17B inhib
61	COc1ccc(NC(=O)c2c(NC(=O)CNCc3ccco3)sc3c2CCC3)cc1	67%[activator]
62	COC(=O)Cn1c(C(=O)N(C)C)cc2c1C[C@H]1CN(C(=O)c3ccccc3)[C@@](Cc3ccc(OC)cc3)(C(=O)OC)[C@@H]21	2%
63	CC1CN(C(=O)c2ccc3c(c2)OCO3)OC(c2ccccc2)O1 (stereo not drawn)	-2%
64	CCn1cc(C(=O)NCCCN(C)c2ccccc2)c(=O)c2cc(S(=O)(=O)N(C)C)ccc21	-4%
65	CC(=O)c1sc2nc(=O)c(C)nn2c1C	?
66	COc1ccc(C2C(C(=O)Nc3cccnc3)=C(C)Nc3nc(-c4ccco4)nn32)cc1 (stereo not drawn)	?
67	COC(=O)c1cc2sccc2n1CC(=O)Nc1ccc(OC)c(OC)c1OC	-8%
68	O=C(Cc1ccc(Cl)cc1)Nc1ccc2oc(-c3ccncc3)nc2c1	32µM*
69	CC(=O)Oc1cccc(N2C(=O)C3CC=C(Cl)CC3C2=O)c1 (stereo not drawn)	5%
70	COc1ccc(C(c2sc3ncnn3c2O)N2CCN(c3ccccc3F)CC2)cc1OC (stereo not drawn)	-8%

Next entries follow.
entry	Molecule	HSD17B inhib
71	CCN(CC)CCCNC(=O)c1ccc(-n2c(=O)c(=O)[nH]c3ccccc32)cc1	16%
72	CC(C)c1nc(SCC(=O)N2CCOCC2)c2c(=O)n(C)c(=O)n(C)c2n1	-2%
73	Cc1cc(-c2ccco2)n(CC(=O)NCCCc2ccccc2)n1	3%
74	CCN(CC)S(=O)(=O)c1ccc(C(=O)Nc2ncn(Cc3ccccc3)n2)cc1	12%
75	CCc1ccc(C(c2ccc(CC)cc2)C(Cl)Cl)cc1	2%
76	COCCn1nnnc1C(c1ccccc1)N1CCN(C)CC1 (stereo not drawn)	-12%
77	Cc1ccc(CNC(=O)[C@H](C)[C@H]2C[C@]2(C)[C@H](NC(=O)OCc2ccccc2)c2ccccc2)o1	-7%
78	O=C(Nc1ccc(S(=O)(=O)N2CCOCC2)cc1)C1CCCCC1	-5%
79	COc1cccc(-c2nc(Nc3ccncc3)c3ccccc3n2)c1	5%
80	COC(=O)[C@H](C)NC(=O)Nc1ccc(S(N)(=O)=O)cc1	7%

Along the list, as entered above.
Entries 71–80 in HSD17B inhib read 16%, -2%, 3%, 12%, 2%, -12%, -7%, -5%, 5%, 7%

Six entries from above, sorted by count of non-hydrogen atoms, largest number first.
entry	Molecule	HSD17B inhib
15	Cc1ccc(S(=O)(=O)N2CCN(C(=O)C3Cc4ccccc4CN3C(=O)c3ccco3)CC2)cc1 (stereo not drawn)	0%
64	CCn1cc(C(=O)NCCCN(C)c2ccccc2)c(=O)c2cc(S(=O)(=O)N(C)C)ccc21	-4%
71	CCN(CC)CCCNC(=O)c1ccc(-n2c(=O)c(=O)[nH]c3ccccc32)cc1	16%
35	CC(C)CCN1CCc2nc(-c3ccccc3)c3c(c2C1)COC(C)C3 (stereo not drawn)	2%[11.4 µM]
51	Cc1noc(C)c1C(=O)N1CCc2ccccc2C1	0%
14	CC(Cc1ccccc1)C(=O)NCCO (stereo not drawn)	-2%

(list continues)
entry	Molecule	HSD17B inhib
81	COc1ccccc1N1CCN(CCCNC(=O)Nc2ccccc2)CC1	7%
82	CN1CCN(S(=O)(=O)c2ccc(NC(=O)c3ccco3)cc2)CC1	-4%
83	Cc1cc(C)cc(-c2nc(-c3ccncc3)no2)c1	8%
84	CCCn1c(SCC(=O)Nc2nc(C)c(C(=O)OC)s2)nnc1C(C)C	2%
85	CCCNc1ncnc2[nH]ncc12	7%[11.4 µM]
86	COc1ccc(-c2c3c(=O)n(C)c(=O)n(C)c3cn2-c2cc(OC)ccc2OC)cc1	25µM*
87	COc1ccccc1NC(=O)CSc1nc(O)cc(=O)[nH]1	-4%
88	CN(C)c1ccc(-c2nc(N(C)Cc3ccco3)c3ccccc3n2)cc1	?
89	C1CCCNCC1	5%
90	CCCCn1c(SCC(=O)Nc2nnc(C)s2)nc2c1c(=O)n(C)c(=O)n2C	4%

Of the compounds above, these have bromine.
entry	Molecule	HSD17B inhib
12	COc1ccc(NC(=O)c2cccc(Cn3cc(Br)cn3)c2)cn1	-1%
22	COCCn1c(C)nc2oc3ccc(Br)cc3c(=O)c2c1=O	?
34	CCN(CC)CCOC(=O)c1cccc(Br)c1	1%
60	CCN(CC)CCOc1ccc(Br)cc1	7%

Additional entries follow.
entry	Molecule	HSD17B inhib
91	CCCCc1cc(=O)oc2cc(OCc3nn[nH]n3)c(Cl)cc12	25µM*
92	CCn1cc(C(=O)NCC2CCCO2)c2cc(OC)c(OC)cc2c1=O (stereo not drawn)	-2%
93	N#Cc1c(NC(=O)c2nc3ncccn3n2)sc2c1CCCCC2	-27%
94	CN(C)C(=O)c1ccc(-c2nc(NC3CCNCC3)c3ccccc3n2)cc1	8%
95	Cn1c(CNC(=O)Cc2ccc3c(c2)OCO3)nnc1SCc1ccccc1	3%
96	CCOC(=O)c1c(NC(=O)COC(=O)Cn2cnc3ccccc32)sc(C)c1C	1%
97	CN(C)CCSc1nc(N)c2c3c(sc2n1)CN(C)CC3	7%
98	CC1CCN(C(=O)CCNS(=O)(=O)c2ccccc2)CC1	11%
99	CN(C)S(=O)(=O)N1CCN(c2cc(Cl)ccc2Cl)CC1	1%
100	CCC(C)NC(=O)CNC(=O)Cn1c(C)cc2ccccc2c1=O (stereo not drawn)	?

The list goes on.
entry	Molecule	HSD17B inhib
101	CCOC(=O)CCN1C(=O)[C@H]2[C@H]3[C@H](O)[C@H](O)C/C(=N/NC(=O)OCc4ccc(OC)cc4)[C@H]3CC[C@@H]2C1=O	-1%[11.4 µM]
102	O=C(N1CCN(c2ccccc2F)CC1)C12CC3CC(CC(C3)C1)C2	1%
103	CC1(C)[C@@H]2CC[C@]1(C)[C@@H](OC(=O)CSC#N)C2	2%[11.4 µM]
104	Cc1noc(C)c1CSc1nnc(-c2ccccc2F)n1CCc1ccccc1	2%
105	CN1CCN(C(=O)c2ccc3c(c2)NC(=O)C(N2CCOCC2)S3)CC1 (stereo not drawn)	6%
106	CCCOc1ccc(C2/C(=C(\O)c3c(C)[nH]c(C(=O)OC)c3C)C(=O)C(=O)N2CCN(C)C)cc1 (stereo not drawn)	-7%
107	CCOC(=O)CC(=O)CSc1nnc(Cn2c(=O)sc3ccccc32)n1C	3%
108	O=C(C1CCCN(S(=O)(=O)c2ccc(Br)s2)C1)N1CCCCCC1 (stereo not drawn)	8%
109	Cc1cccc(-c2noc(-c3ccc(F)cc3)n2)c1	-1%
110	c1ccc(Cn2nnnc2-c2ccco2)cc1	4%

Other entries follow:
entry	Molecule	HSD17B inhib
111	c1cncc(CNCc2cccnc2)c1	4%[11.4 µM]
112	CCOC(=O)c1ccc(COc2nc3ccccc3nc2-c2ccccc2NC(C)=O)o1	6%
113	COCCNC(=O)C(c1ccccc1C)N(CCOC)C(=O)Cn1nnc2ccccc21 (stereo not drawn)	5%
114	O=C(Cn1nnc2c(cnn2-c2ccccc2)c1=O)NCc1cccs1	-25%
115	CCCn1c(CCNC(=O)c2cccs2)nc2ccccc21	3%
